Screens as filed in PubChem.
H5N1 antiviral: MDCK cell protection from H5N1 avian flu; cytopathic effect, luminescence, 72 h; stronger effect = higher value; no value below 0 was filed and about half of the inactive calls have no number; reference of the scale not given here; inhibition, % at 50 µM; 96,000 tested, 0.07% active; AID 740; in the data active = inhibition above about 25%
* hit, by the source's call; i = inactive. A portion of the library. The share of hits here may be higher or lower than overall.

| canonical_smiles | H5N1 antiviral |
| --- | --- |
| O=C(O)c1ccc(Cl)c(S(=O)(=O)N2CCCCCC2)c1 | i |
| COC(=O)C1CCN(CC(=O)Nc2sc3c(c2C#N)CCC3)CC1 | i |
| CC(=O)N1N=C(c2ccc3nccnc3c2)CC1c1ccccc1 (stereo unspecified) | 0.6 |
| Nc1nnc(SCC(=O)Nc2ccc(S(=O)(=O)N3CCOCC3)cc2)s1 | 0.6 |
| Cc1cc(C)n(CC(=O)Nc2ccccc2)n1 | i |
| CN1CCc2c(sc3c2c(=O)n(-c2ccccc2)c2n[nH]c(=S)n32)C1 | 2.8 |
| CCCN(C(=O)c1ccccc1N)c1c(C)n(C)n(-c2ccccc2)c1=O | i |
| CC(C(=O)N=c1sc2ccccc2n1C)N1C(=O)C2CC=CCC2C1=O (stereo unspecified) | 1.5 |
| Cc1ccc(-c2noc(CN(C(=O)c3cccc(Br)c3)C(C)C)n2)cc1 | i |
| CCOC(=O)C(C)Oc1c(Br)cc(C2NC(=O)NC(C)=C2C(C)=O)cc1OCC (stereo unspecified) | 1.8 |
| CCCn1c(=N)n(CC(O)COc2cccc(C)c2)c2ccccc21 (stereo unspecified) | 1.6 |
| Cc1ccccc1-c1cc(-c2ccccc2O)on1 | 2.2 |
| COc1ccc(CNC(=O)C(C)OC(=O)c2cccn2C)cc1 (stereo unspecified) | 0.3 |
| CCN1CCN(CCNC(=O)CSCc2nc(-c3ccc(OC)c(OC)c3)oc2C)CC1 | 0.1 |
| NS(=O)(=O)c1ccc(NC(=O)CSc2nnc(-c3cnccn3)n2-c2ccccc2)cc1 | 2.4 |
| Oc1c(C=C2N=c3ccccc3=N2)sc(=S)n1-c1ccc(F)cc1 | 0.5 |
| O=c1cc(CO)occ1OCc1ccccc1 | i |
| O=C(C1CC(=O)N(C2CCCC2)C1)N1CCC(Cc2ccccc2)CC1 (stereo unspecified) | 1.0 |
| C=CCNC(=O)C1CC=CCC1C(=O)O (stereo unspecified) | i |
| Cc1ccc(-n2c(SCC(=O)Nc3cc(C)on3)nc3ccccc3c2=O)cc1 | 0.4 |
| COc1ccc(Cn2nnc3c(=O)[nH]c(C(=O)NCCc4ccc(F)cc4)nc32)cc1OC | 1.6 |
| Cc1n[nH]c(C)c1CCN | i |
| CCOP(=O)(OCC)C(CC)N1CCOCC1 (stereo unspecified) | 0.4 |
| COc1c2occc2c(OC)c2c(=O)cc(C(F)(F)F)oc12 | i |
| O=C1CSC(c2ccc(F)cc2)N1c1nnc(C23CC4CC(CC(C4)C2)C3)s1 (stereo unspecified) | 0.2 |
| COc1ccc(CCN2C(=O)c3cccc4cccc(c34)C2=O)cc1OC | 3.4 |
| COc1ccccc1C(=O)NC(=S)N1CCCc2ccccc21 | 1.4 |
| CC(=O)Cc1nsc(NC(=O)C2Cc3ccccc3C(=O)O2)n1 (stereo unspecified) | i |
| COC(=O)COc1cccc2c(=O)n(CC(=O)N3CCCc4ccccc43)ccc12 | 1.4 |
| O=C(O)C1C2C=CC(C2)C1C(=O)NCc1ccoc1 (stereo unspecified) | i |
| COC(=O)CC1(CC(=O)OC)C(=O)NC(=O)NC1=O | i |
| Cc1ccc(-n2c(Cc3cccn3C)nnc2SCC(=O)NC2CCCCC2)cc1 | 1.9 |
| COc1ccc(-n2c(=O)c3ccccc3n(Cc3ccc(F)cc3)c2=O)cc1OC | i |
| O=C(NCc1ccco1)C(c1ccc(F)cc1)N(Cc1cccnc1)C(=O)Cn1nnc2ccccc21 (stereo unspecified) | 0.8 |
| CCOC(=O)c1ccc(CNC(=O)C(Cc2c[nH]c3ccccc23)NC(C)=O)o1 (stereo unspecified) | i |
| CCN(CC)c1ccc(NC(=O)c2ccc(NC(=O)C3CCCO3)cc2)c(C)c1 (stereo unspecified) | 0.1 |
| C=CCNC(=O)CC(=O)N/N=C/c1ccc(C(=O)OC)cc1 | 1.0 |
| Cc1ccc(OCC(=O)Nc2ccc(-c3nnc(-c4ccco4)o3)cc2)cc1 | 0.4 |
| Fc1ccc(-c2nnc3ccc(N4CCc5ccccc5C4)nn23)cc1 | 2.0 |
| O=C(Nc1ccccc1N1CCOCC1)c1ccc2ccccc2n1 | 5.9 |
| O=C(c1ccco1)N1CCN(S(=O)(=O)c2cccs2)CC1 | 0.8 |
| CC(C)NS(=O)(=O)c1ccc(NC(=O)CCc2ccccc2)cc1 | i |
| CCOCCc1nnc(NC(=O)Cc2ccccc2)s1 | 0.8 |
| O=C(CSc1nnc(CNC(=O)c2cccs2)o1)NC1CCCCC1 | 0.1 |
| O=C(Nc1ccc(OC(=O)c2ccncc2)cc1)c1ccncc1 | i |
| CCOC(=O)c1cc2c(=O)n3ccccc3nc2n(CCCOC)c1=NC(=O)c1cccnc1 | 2.6 |
| CCn1c(C(C)NC(C)=O)nc2ccccc21 (stereo unspecified) | 2.0 |
| Cc1ccc(Cl)cc1NC(=O)CSC(N)=O | i |
| O=S1(=O)CC(N2CCCCC2)C(N2CCCCC2)C1 (stereo unspecified) | i |
| Cc1sc2ncnc(SCC(=O)NC3CC3)c2c1C | 1.3 |

Another view of some results above.
Cc1ccc(OCC(=O)Nc2ccc(-c3nnc(-c4ccco4)o3)cc2)cc1
  H5N1 antiviral = 0.4
Fc1ccc(-c2nnc3ccc(N4CCc5ccccc5C4)nn23)cc1
  H5N1 antiviral = 2.0
O=C(Nc1ccccc1N1CCOCC1)c1ccc2ccccc2n1
  H5N1 antiviral = 5.9
O=C(c1ccco1)N1CCN(S(=O)(=O)c2cccs2)CC1
  H5N1 antiviral = 0.8

(listing goes on)
| canonical_smiles | H5N1 antiviral |
| --- | --- |
| CN(C)S(=O)(=O)c1ccc(-c2cn3ccccc3n2)cc1 | 1.4 |
| Cc1nn(C)c(C)c1S(=O)(=O)N(CC(=O)N1CCc2ccccc21)c1ccc(C(C)C)cc1 | i |
| Fc1ccc(NC2=NCCS2)cc1Cl | i |
| Cc1cccc(NC(=S)N/N=C/c2ccc(Cl)c([N+](=O)[O-])c2)c1 | i |
| COC(=O)CC(=O)CSc1nc2c(cc1C#N)CCC2 | i |
| O=C(Nc1ccc(N2CCOCC2)cc1)c1cn2ccccc2n1 | i |
| Cc1c(NC(=O)c2coc(=O)c(Br)c2)c(=O)n(-c2ccccc2)n1C | 1.7 |
| C=CCn1c(Cc2csc(N)n2)nnc1SCc1ccc(C(=O)OC)cc1 | i |
| COc1cc(OC)cc(-c2cc3nc(C)c(CCC(=O)O)c(=O)n3[nH]2)c1 | i |
| Cc1ccc2cc(CN(CCN3CCOCC3)C(=O)NCc3ccccc3)c(=O)[nH]c2c1C | i |
| COc1ccc(NS(=O)(=O)c2cc(C)ccc2OC)cc1OC | 0.9 |
| CCOC(=O)C1=C(C)OC(N)=C(C#N)C1c1cc(Cl)c(OCC(N)=O)c(OC)c1 (stereo unspecified) | i |
| Cc1ccc(CS(=O)(=O)CCC(=O)NCCCOC(C)C)cc1 | 0.8 |
| CS(=O)(=O)N1CCC(C(=O)Nc2ccc(OCc3ccccc3)cc2)CC1 | i |
| CCOC(=O)CC1C(=O)NCCN1C(=O)c1c(F)cccc1F (stereo unspecified) | 0.7 |
| Clc1cccc(Cl)c1CN1CCN(c2ccccc2)CC1 | i |
| O=C(COCc1nc2ccccc2c(=O)[nH]1)NC1CCCC1 | i |
| Cn1c(=O)c2c(nc(Br)n2CCCc2ccccc2)n(C)c1=O | 0.4 |
| Cc1nnc(SCC(=O)c2cc(C)n(-c3ccc4c(c3)OCO4)c2C)s1 | i |
| Cc1c(C(=O)NCCCN2CCOCC2)sc2nc(-c3ccccc3)cn12 | 0.1 |
| O=C(O)CCc1ncc(C(F)(F)F)cc1Cl | 0.8 |
| O=C(NC1CCCC1)C1CCCN1C(=O)Nc1ccc(Cl)cc1 (stereo unspecified) | 0.5 |
| CC(=O)N(C(C)=O)c1c(C#N)c(C)n(-c2ccccc2)c1C(=O)c1ccccc1 | i |
| COc1ccc(N2CCN(CCNC(=O)Nc3ccc(Cl)cc3)CC2)cc1 | i |
| Cc1cc(-c2ccccc2)nc(Oc2ccc(C(C)(C)C)cc2)c1S(C)(=O)=O | i |

Entries listed so far that have a CF3 group:
| canonical_smiles | H5N1 antiviral |
| --- | --- |
| COc1c2occc2c(OC)c2c(=O)cc(C(F)(F)F)oc12 | i |
| O=C(O)CCc1ncc(C(F)(F)F)cc1Cl | 0.8 |

New compounds follow:
| canonical_smiles | H5N1 antiviral |
| --- | --- |
| COc1ccc(N2CCN(CCCn3c(=S)[nH]c4ncccc4c3=O)CC2)cc1 | 0.8 |
| CCC(C)NC(=O)N[C@@H](CCSC)C(=O)OC (stereo partly specified) | 0.9 |
| CCCCCOC(=O)C1[C@H]2C(=O)N(Cc3cccs3)C[C@]23C=C[C@H]1O3 (stereo partly specified) | i |
| NS(=O)(=O)c1ccc(NC(=O)CSC2CCCCC2)cc1 | 0.1 |
| COc1ccc(N2C(=O)CN=C2Nc2nc(C)cc(C)n2)cc1 | i |
| C=CCN1C(=O)NC2(CCCCC2)C1=O | i |
| O=C(NCCc1ccc(Cl)cc1)c1ncn[nH]1 | 0.6 |
| CCOC(=O)CCC(NC(=O)c1ccc(NCN2C(=O)c3ccccc3C2=O)cc1)C(=O)OCC (stereo unspecified) | 0.7 |
| Cc1cccc(C)c1NC(=O)CSc1nnc(-c2ccccc2)n1Cc1ccc2c(c1)OCO2 | i |
| Cc1oc(C(=O)O)cc1COc1ccccc1Cl | i |
| N#Cc1c(Sc2ncc(C(F)(F)F)cc2Cl)nsc1C/C=N\OCc1c(F)cccc1Cl | i |
| CC(C)C1C(=O)NC(=S)N1S(=O)(=O)c1ccc(C(C)(C)C)cc1 (stereo unspecified) | i |
| CC/C(O)=C(/C#N)c1nnc2n1CCCCC2 | i |
| CCC(O)c1cc2c(cc1NC(=O)c1cccs1)OCCO2 (stereo unspecified) | 0.2 |
| COc1ccccc1N1CCN(C(=O)c2cc(-c3ccc(Cl)cc3)on2)CC1 | 0.3 |
| COc1ccc(NC(=O)c2cc3c(=O)n(C)c4ccccc4c3n2C)cc1OC | 0.4 |
| COc1ccc(OC)c(NC=C2C(=O)OC3(CCCCC3)OC2=O)c1 | 0.6 |
| Cc1c(Br)c(C(F)(F)F)nn1CC(=O)NCC1CCCO1 (stereo unspecified) | 0.1 |
| Cc1csc(NC(=O)CSc2nc(C(C)C)nc3c2c(=O)n(C)c(=O)n3C)n1 | 1.5 |
| CC1CCN(S(=O)(=O)c2ccc(F)c(C(=O)O)c2)CC1 | i |
| CCN1CCN(C(c2cccs2)C(C)NC(=O)c2ccccc2OC)CC1 (stereo unspecified) | 1.2 |
| CCN1CCN(S(=O)(=O)c2ccc3c(c2)OCCO3)CC1 | i |
| Cc1nc2cc(-c3ccccc3)nn2c(C)c1CCC(=O)N1CCN(c2ccccc2)CC1 | 0.9 |
| CCOCCCNC(=O)C1CCC(CNS(=O)(=O)c2cccc3nsnc23)CC1 (stereo unspecified) | 0.1 |
| O=C(Cc1ccc(Cl)cc1)NCC(=O)N1CCCC1 | i |
| Cc1cc(C)n(C(C[N+](=O)[O-])c2ccc(Cl)cc2)n1 (stereo unspecified) | i |
| COc1cc(C(=O)Nc2cc(C)c(OCC(=O)N3CCOCC3)c(C)c2)cc(OC)c1OC | i |
| Cc1c(NC(=S)N/N=C/c2cccc(O)c2)c(=O)n(-c2ccccc2)n1C | 0.5 |
| Cn1c(SCC(=O)Nc2nccs2)nnc1C12CC3CC(CC(C3)C1)C2 | 1.6 |
| CCCCNC(=O)c1sc(=S)n(-c2ccccc2OC)c1N | i |
| COc1ccc(C2CCCN2C(=O)Nc2cccc(C(C)=O)c2)cc1OC (stereo unspecified) | i |
| NC(=O)COc1ncn(-c2ccccc2)n1 | i |
| CC(/C=N\NC(=O)Cn1c(C)nc2ccccc21)=C\c1ccccc1 | i |
| CC(C)OC(=O)CSc1nc(-c2ccc(F)cc2)nc2ccc(F)cc12 | 1.1 |
| COc1ccccc1C1/C(=C(/O)c2ccccc2)C(=O)C(=O)N1CCO (stereo unspecified) | i |
| O=C(Nc1ccc(Br)cc1Cl)c1cnccn1 | i |
| COc1cc(C2C3=C(CC(C)(C)CC3=O)N(C)C(=O)N2C)cc(OC)c1OC (stereo unspecified) | 1.8 |
| CN1CCN(C(=O)c2ccccc2N(Cc2ccccc2)S(C)(=O)=O)CC1 | 0.9 |
| C=CCOc1c(Br)cc(CNn2nnnc2N)cc1OCC | 0.5 |
| Fc1ccc(N2CCN(c3ccc4c(C(F)(F)F)cc(C(F)(F)F)nc4n3)CC2)cc1 | 1.1 |
| CCN(CC)CCNC(=O)c1ccc2c(=O)n(CCc3ccccc3)c(=O)[nH]c2c1 | i |
| COCCn1c(SCC(=O)Nc2ccc3c(c2)OCCO3)nc2c(c1=O)SC(C)C2 (stereo unspecified) | 1.5 |
| CCC(CC)C(=O)N(CCc1ccc(OC)cc1)Cc1nc2ccccc2c(=O)[nH]1 | i |
| NC(=S)N/N=C/c1ccc(-c2cccc([N+](=O)[O-])c2)o1 | 1.8 |
| O=C1Nc2c(c(=O)[nH]c(=O)n2-c2ccccc2)C(C(F)(F)F)(C(F)(F)F)N1 | 1.1 |
| Cc1cccc(NC(=O)CN(C)S(=O)(=O)c2cccc3cccnc23)c1 | 5.2 |
| Cc1ccc(-n2c(O)cnc2Nc2nc(C)cc(C)n2)cc1 | 0.1 |
| O=c1cc(CSc2nnc(COc3ccc(Cl)cc3)o2)c2ccccc2[nH]1 | 0.7 |
| COCCSc1ccccc1C(=O)Nc1ccncc1 | i |
| Cc1cccc(-c2nnc3n2N=C(c2ccccc2)CS3)c1 | i |

Remaining list, next part:
| canonical_smiles | H5N1 antiviral |
| --- | --- |
| Cc1cc2c(c(=O)n1CCc1ccccc1)C(C(C)C)C(C#N)=C(N)O2 (stereo unspecified) | 0.9 |
| COc1ccc(C(=O)NN2C(=O)C3CCC(C)(C2=O)C3(C)C)cc1 (stereo unspecified) | 0.2 |
| CCOC(=O)c1cnn(-c2ccccc2)c1-n1cccc1C(=O)C(=O)Nc1ccc(F)cc1 | 0.4 |
| CCOCC(=O)Nc1cc(-c2cn3cccnc3n2)ccc1C | i |
| COc1cc2c(cc1NS(=O)(=O)N1CCCCC1)oc1ccccc12 | 2.1 |
| Cc1cc(C(=O)CSc2nnc(-c3cccnc3)n2-c2ccccc2F)c(C)n1CC1CCCO1 (stereo unspecified) | 0.4 |
